Screening results from PubChem BioAssay.
GIV-Gai inh: inhibitors of GIV GBA-motif binding to rat Galpha-i3 | percent of control (FP), % (no concentration beside the values) | 210,000 tested, 0.42% active | P08753 | Galpha-i3/FITC-GIV peptide fluorescence polarization, 90 min; stronger effect = lower value; scaled: aluminum fluoride 0%, vehicle 100%;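 active = replicate mean at 85% of control or lower, very high polarization wells dropped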;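 also: wells of about 15 µL received 100 nL stock; the first replicate is given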
Target sequence (P08753 whole entry, looked up): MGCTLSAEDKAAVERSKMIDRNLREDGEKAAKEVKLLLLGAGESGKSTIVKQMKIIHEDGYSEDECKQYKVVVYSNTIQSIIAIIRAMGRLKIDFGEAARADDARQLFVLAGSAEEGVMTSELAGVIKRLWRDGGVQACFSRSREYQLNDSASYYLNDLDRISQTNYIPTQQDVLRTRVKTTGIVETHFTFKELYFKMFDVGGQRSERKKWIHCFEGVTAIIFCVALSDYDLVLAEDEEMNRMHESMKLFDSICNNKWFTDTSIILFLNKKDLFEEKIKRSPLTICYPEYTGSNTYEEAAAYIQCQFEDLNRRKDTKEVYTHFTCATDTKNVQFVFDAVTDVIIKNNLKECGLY
Sa growth inh: blocks Staphylococcus aureus growth; relative growth, % (test concentration not listed); S. aureus RN4220 growth, OD600, 20 h, 42 °C; stronger effect = lower value; 170,000 tested, 0.53% active;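 active = growth at 42 °C up to 50% and 20 or more points under that at 30 °C, or under 10% at both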;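 also: 300 nL library stock went into each well; scaled to the means of positive and negative controls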
HCMV UL50-53 inh: inhibitors of HCMV UL50-UL53 nuclear egress complex interaction | HTRF UL50-UL53 interaction, normalized percent inhibition | inhibition, % (concentration not given with the values) | 190,000 tested, 0.15% active | AID 1918969;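 active = both replicates at 50% or more, plus weaker picks with an unusually low signal ratio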;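 also: stock transfer was 100 nL into about 20 µL; 0% = negative control wells and 100% = wells with untagged competitor protein; inactives centre near -12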
Sa growth inh second temp: recorded beside Sa growth inh, whose call it bears; relative growth, %; measured here: growth at 30 °C;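 optical density after 20 h as mean of two plates; 100% = untreated growth and lower means inhibition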
An asterisk follows results filed as active; x = no result given; & = joins results of further samples. Random draw from the library; any-hit rate near 0.82%.

Values run as follows: GIV-Gai inh	Sa growth inh	Sa growth inh second temp	HCMV UL50-53 inh
Cc1cc(=O)[nH]c2c1c(-c1ccccc1)nn2C
 : 104	105	100	-2
CSC1=C(C#N)C(c2ccc(Cl)cc2)CC(=O)N1 (stereo not drawn)
 : 103	112	97	-37
N#Cc1ccc(COC(=O)CCN2C(=O)COc3ccccc32)cc1
 : x	85	91	-26
O=C1c2ccccc2C(=O)N1CNc1ccc(I)cc1
 : 107	101	96	1
O=C(Nc1ccccc1C(F)(F)F)c1ccsc1
 : 107	110	96	53
Cc1noc2ncnc(N3CCCC(C(=O)Nc4nccs4)C3)c12 (stereo not drawn)
 : 103	91	83	-28
c1ccc2cc(Nc3ncnc4[nH]ncc34)ccc2c1
 : 101	110	65	x
CCC(=O)C1(Sc2nc3ccccc3[nH]2)CC(C)(C)OC1=O (stereo not drawn)
 : 103	93	89	0
c1ccc(-n2nnnc2SCCNCc2ccc3c(c2)OCCO3)cc1
 : 98	x	x	-4
Cc1nn(C)c(Oc2cccc(C(F)(F)F)c2)c1C(=O)O
 : 104	x	x	-11
c1ccc(-c2cccs2)nc1
 : 99	100	88	-30
CC(=O)Nc1nonc1NC(=O)c1ccc(C)cc1
 : x	98	85	-2
S=C(NCCc1ccncc1)Nc1ccccc1
 : 100	87	98	-1
O=c1oc2cc(S(=O)(=O)NC3CC3)ccc2n1Cc1noc(C2CCC2)n1
 : 108	x	x	-20
CCN1CCN(Cc2c(C)[nH]c3ccc(C)cc3c2=O)CC1
 : 107	91	94	0
CCOc1ccc(N(CC(=O)Nc2cc(C)ccc2C)S(=O)(=O)c2c(C)[nH]c(=O)[nH]c2=O)cc1
 : 105	101	85	-3
CCCN(CCC)C(=O)C1CCCN(c2ncnc3c2nc2n3CCCCC2)C1 (stereo not drawn)
 : 99	112	89	x
Cc1nc2sc3ccccc3n2c(=O)c1S(=O)(=O)Nc1ccc(F)cc1
 : 99	x	x	-30
COc1ccc(C)cc1NC(=O)Cn1c(=O)oc2cc(S(=O)(=O)N3CCCCCC3)ccc21
 : 100	117	98	x
COCCCN1Cc2cccc(C(=O)O)c2C1=O
 : 109	96	99	3

The final 2 records of the section above come first, to join the parts:
Values run as follows: GIV-Gai inh	Sa growth inh	Sa growth inh second temp	HCMV UL50-53 inh
COc1ccc(C)cc1NC(=O)Cn1c(=O)oc2cc(S(=O)(=O)N3CCCCCC3)ccc21
 : 100	117	98	x
COCCCN1Cc2cccc(C(=O)O)c2C1=O
 : 109	96	99	3
CCCn1c(SCC(=O)N(C2=CCCCC2)C2CC2)n[nH]c1=O
 : x	93	98	-20
Cc1ccc(S(=O)(=O)NCc2c(-c3ccccc3)noc2C)cc1
 : 103	98	60	2
CSc1nc2ccccc2n1CC(=O)N1CCc2ccccc21
 : x	105	94	-22
Cc1ccc(S(=O)(=O)N2CCC(C(=O)Nc3ccc(Oc4ccccc4)cc3)CC2)cc1
 : 105	92	94	-19
CC(CC1C(C#N)=C(N)OC2=C1C(=O)CCC2)c1ccccc1 (stereo not drawn)
 : x	100	67	-27
Cc1cc(C)cc(Nc2sc(C(=O)c3ccccc3)c(N)c2S(=O)(=O)c2ccccc2)c1
 : 99	99	92	x
Cc1cc2c(cc3c(=O)n(CC(=O)NCc4ccccc4Br)ncn32)s1
 : 100	119	86	-18
CC(=O)N1CCC(c2nc(-c3ccc(Cl)cc3)no2)CC1
 : 101	113	92	-7
CC(C(=O)Nc1ccc(Br)cc1)n1nc(-c2ccc3c(c2)OCCO3)ccc1=O (stereo not drawn)
 : 102	x	x	-13
COc1cc(CNC(=O)C2CCCCN2S(=O)(=O)c2ccc(F)cc2)cc(OC)c1OC (stereo not drawn)
 : 102	77	95	x
O=C(NCC(c1ccco1)N1CCCCC1)c1ccc2c(c1)S(=O)(=O)c1ccccc1C2=O (stereo not drawn)
 : x	98	94	-117
CCCSc1ccc(C(=O)Nc2ccc(Cl)cc2)cn1
 : 101	x	x	-4
CCC(C)NC(=O)Cn1c(-c2cccs2)cc2cc(Cl)ccc21 (stereo not drawn)
 : 102	110	99	x
O=C(c1scc2c1CCCC2)N1CCN(c2ccccc2O)CC1
 : x	99	75	-6
Brc1ccc(C=NC2C3CC4CC(C3)CC2C4)cc1 (stereo not drawn)
 : 97	106	97	x
Cc1cc(C)cc(NC(=NCc2ccncc2)NC(=O)c2ccc(CN3CCOCC3)cc2)c1
 : 100	x	x	6
CC(=O)Nc1nonc1-c1nnc(SCc2ccccc2Cl)n1C
 : 97	92	91	-7
CCOc1ccc(C2c3c(-c4ccc(C)cc4)n[nH]c3C(=O)N2c2ccc(Cl)cc2)cc1 (stereo not drawn)
 : 109	110	89	-12
CC(C)(C)c1ccc(=O)[nH]n1
 : 101	113	99	-1
COc1cc(OC)cc(C(=O)Nc2ccc(SCc3cc(=O)n4c(ncn4C(C)C)n3)cc2)c1
 : 103	x	x	-32
CCn1cc2nc(SCC(=O)Nc3cccc(Cl)c3C)n(Cc3ccc(Cl)cc3)c(=O)c2n1
 : 102	98	92	-15
COC(=O)c1cc(OC)c(OC)cc1NC(C)=O
 : 103	97	94	-26
Cc1ccc2[nH]c(=O)c(CNc3ccc(N4CCCCC4)c(CO)c3)cc2c1
 : 106	82	84	-25
O=C(NC1CCCCC1)N(Cc1cc2cc3c(cc2[nH]c1=O)OCCO3)C1CCCCC1
 : 105	100	92	-39
Cc1ccc(N2CC(C(=O)NCCS(=O)(=O)N3CCN(c4ccccc4)CC3)CC2=O)cc1C (stereo not drawn)
 : 103	94	90	x
c1ccc(-c2nc3c4ccccc4nc(NCCN4CCN(c5ccccc5)CC4)n3n2)cc1
 : 107	95	96	15
CC(OC(=O)c1ccc2c(c1)S(=O)(=O)c1ccccc1C2=O)C(N)=O (stereo not drawn)
 : x	67	67	-136
CCOc1cc(CNC(=O)Cn2ncn3c(cc4cc(F)ccc43)c2=O)cc(OCC)c1OCC
 : 100	117	86	-24
C/C(=N\NC(N)=O)c1ccc(C)c(C)c1
 : x	89	92	-15
Cc1ccc(Cl)cc1NC(=O)c1cnc(N2CCCCC2)c2ccccc12
 : 107	117	96	x
CCc1ccccc1N(C)S(=O)(=O)c1ccc(-c2cc(C(F)(F)F)no2)s1
 : 102	89	88	-27
O=c1ccc2cc3c4c(c2o1)CCCN4CCC3
 : 159	88	43	-64
Cc1csc(-c2cc3ccc(OCc4c(F)c(F)c(F)c(F)c4F)cc3oc2=O)n1
 : 105	x	x	-12
CC1S/C(=C/c2nc3ccccc3s2)NC1=O (stereo not drawn)
 : x	90	46	-102
Cc1ccc(C23CCC(=O)N2C(C(=O)NCCc2ccccn2)CS3)cc1 (stereo not drawn)
 : x	88	98	-6
CC(=O)c1ccc(NC(=O)Cn2c(-n3nc(C)cc3C)nc(C)cc2=O)cc1
 : 104	105	83	x
O=C(Cc1csc(NC(=O)Nc2ccccc2)n1)Nc1cccc(Br)c1
 : 109	x	x	1
Cc1c(Cl)cccc1NC(=O)CN1C(=O)COc2ccc(S(=O)(=O)N3CCOCC3)cc21
 : 106	125	91	x
COc1ccc(/C=c2/sc3nc4ccccc4n3c2=O)cc1OC
 : 107	90	82	-5
O=c1c2ccccc2nc2n1CCCCC2
 : 99	105	95	11
CCN(CC)c1ccc2cc(C(=O)NC3CCCCC3)c(=O)oc2c1
 : x	125	91	-24
C=CCSC1=C(C#N)C(c2cccc(Cl)c2Cl)CC(=O)N1 (stereo not drawn)
 : 98	95	83	-27
CN(Cc1ccc(-c2ccc(Br)cc2)o1)C(=O)c1ccc(S(N)(=O)=O)cc1
 : x	98	87	-28
O=C(COCc1cc(-c2ccc(F)cc2)on1)NCC1CCCO1 (stereo not drawn)
 : 104	97	86	x
COc1ccc(OC)c(NC(=O)CSc2cn(C)c3ccccc23)c1
 : 99	106	85	4
CCc1nc2nc(C)cc(Nc3ccc(OC)cc3)n2n1
 : 108	94	91	-4
CCCCOC(=O)c1ccc(OC(=O)c2sc3ncn(Cc4cccc(F)c4)c(=O)c3c2C)cc1
 : 101	116	87	x
CCOC(=O)Nc1ccc2c(COC(=O)c3cc(-c4ccco4)nc4ccccc34)cc(=O)oc2c1
 : x	71	72	-39
O=C(O)c1ccc(NS(=O)(=O)c2ccc3nnn(O)c3c2)cc1
 : x	106	94	-6
CCCCC(=O)Nc1cccc2c1C(=O)N(c1ccccc1)C2=O
 : 103	108	71	-48
CCOC(=O)c1cc2n(n1)CC(C)(C(=O)NC1CCCCC1)N(c1ccc(C)cc1)C2=O (stereo not drawn)
 : 99	x	x	7
COc1ccc(-c2nnsc2NC(=O)c2ccccc2CO)cc1
 : 106	95	20	-105
COc1ccc(NC(=O)C2CCCN2S(=O)(=O)c2ccc3c(c2)NC(=O)CO3)cc1 (stereo not drawn)
 : 106	x	x	-21
CCSc1nnc(-c2c[nH]c3ccccc23)n1-c1cccc(OC)c1
 : 102	117	94	x
COc1cc(Br)cc2cc(S(=O)(=O)c3ccccc3)c(=O)oc12
 : 93	105	88	-8
N/C(CC(=O)Nc1ccccn1)=N\O
 : x	76	78	11
N=C1c2ccccc2CN1Cc1ccc(CN2Cc3ccccc3C2=N)cc1
 : x	99	98	-9
Cc1cccc(C(=O)N(C)C2CCCCC2)c1C
 : 101	79	80	-21
CC1(C(=O)NC2CCCC2)Cn2c(cc3ccccc32)C(=O)N1C1CCCC1 (stereo not drawn)
 : 98	x	x	0
CCCCn1c(Oc2cccc(C(=O)OC)c2)nc2c1c(=O)n(C)c(=O)n2C
 : 108	90	103	x

A different layout for part of the listing above:
molecule,GIV-Gai inh,Sa growth inh,Sa growth inh second temp,HCMV UL50-53 inh
CCN(CC)c1ccc2cc(C(=O)NC3CCCCC3)c(=O)oc2c1,x,125,91,-24
C=CCSC1=C(C#N)C(c2cccc(Cl)c2Cl)CC(=O)N1 (stereo not drawn),98,95,83,-27
CN(Cc1ccc(-c2ccc(Br)cc2)o1)C(=O)c1ccc(S(N)(=O)=O)cc1,x,98,87,-28
O=C(COCc1cc(-c2ccc(F)cc2)on1)NCC1CCCO1 (stereo not drawn),104,97,86,x
COc1ccc(OC)c(NC(=O)CSc2cn(C)c3ccccc23)c1,99,106,85,4
CCc1nc2nc(C)cc(Nc3ccc(OC)cc3)n2n1,108,94,91,-4
CCCCOC(=O)c1ccc(OC(=O)c2sc3ncn(Cc4cccc(F)c4)c(=O)c3c2C)cc1,101,116,87,x
CCOC(=O)Nc1ccc2c(COC(=O)c3cc(-c4ccco4)nc4ccccc34)cc(=O)oc2c1,x,71,72,-39
O=C(O)c1ccc(NS(=O)(=O)c2ccc3nnn(O)c3c2)cc1,x,106,94,-6
CCCCC(=O)Nc1cccc2c1C(=O)N(c1ccccc1)C2=O,103,108,71,-48
CCOC(=O)c1cc2n(n1)CC(C)(C(=O)NC1CCCCC1)N(c1ccc(C)cc1)C2=O (stereo not drawn),99,x,x,7
COc1ccc(-c2nnsc2NC(=O)c2ccccc2CO)cc1,106,95,20,-105
COc1ccc(NC(=O)C2CCCN2S(=O)(=O)c2ccc3c(c2)NC(=O)CO3)cc1 (stereo not drawn),106,x,x,-21
CCSc1nnc(-c2c[nH]c3ccccc23)n1-c1cccc(OC)c1,102,117,94,x
COc1cc(Br)cc2cc(S(=O)(=O)c3ccccc3)c(=O)oc12,93,105,88,-8
N/C(CC(=O)Nc1ccccn1)=N\O,x,76,78,11
N=C1c2ccccc2CN1Cc1ccc(CN2Cc3ccccc3C2=N)cc1,x,99,98,-9

Next part.
Values run as follows: GIV-Gai inh	Sa growth inh	Sa growth inh second temp	HCMV UL50-53 inh
Cc1ccc(N2C(=O)CN(CC(C)C)[C@H]3CS(=O)(=O)C[C@H]32)cc1C
 : 103	x	x	-8
CC(C)[C@H](NC(=O)OCc1ccccc1)C(=O)N[C@H](C=O)Cc1ccccc1
 : 111	x	x	-5&16
CCN(CC)c1ccc(/C=C2\CC/C(=C\C(C)C)C2=O)cc1
 : -88*	72	71	-43
c1ccc(-c2noc(-c3ccc(N4CCN(c5ccccc5)CC4)nn3)n2)cc1
 : 98	x	x	-20
O=C1OC(c2ccccc2)C(O)(c2ccccc2)C12CCCC2 (stereo not drawn)
 : 106	101	85	-17
CCC(C)n1c(SCc2ccc(C(C)(C)C)cc2)nc2ccsc2c1=O (stereo not drawn)
 : 103	81	91	x
O=C1CCN(c2cc(Nc3cccc(F)c3)c3c4c(onc24)-c2ccccc2C3=O)CC1
 : 244	87	81	-40
CCN1CCN(Cc2ccc(NC(=O)Nc3ccc(SC)cc3)cc2)CC1
 : 109	112	97	3
COc1ccc(NC(=O)Cn2ccc3c(OC)cccc3c2=O)cc1
 : 98	104	91	-26
O=C(Nc1cccc(Br)c1)c1cc(-c2cccnc2)on1
 : 102	x	x	-4
CCSc1ncc2c(=O)n(CC(=O)NC3CCCCC3)cnc2n1
 : 110	x	x	10
O=C(Nc1ccc2c(c1)OCO2)c1ccc(N2C(=O)CCS2(=O)=O)cc1Cl
 : 103	x	x	-24
COc1ccc(-c2cc(=O)oc3c4c(ccc23)OCN(Cc2cccc(OC)c2)C4)cc1
 : 97	100	50	-69
N#Cc1ccc(CSc2nnc(N3CCOCC3)n2-c2ccccc2)cc1
 : x	80	92	-31
CCSCCOC(=O)C1=C(C)NC2=C(C(=O)CC(c3ccc(OC)cc3)C2)C1c1ccccc1F (stereo not drawn)
 : 102	x	x	-18
NC(=O)c1ccccc1NS(=O)(=O)c1cccs1
 : 107	116	98	x
Nc1c(C(=O)c2ccc(Br)s2)oc2ccc(Br)cc12
 : 101	x	x	6
